# From PubChem BioAssay
# EPAC1 agonist: Validation qHTS for agonist of cAMP-regulated guanine nucleotide exchange factor 3 (EPAC1); Rap guanine nucleotide exchange factor 3 (Homo sapiens), O95398; EPAC1 Rap1b BODIPY-GDP exchange, fluorescence; Potency, µM, inactives show max response, positive = active, hits mostly activators; actives 1% (n = 16,000); AID 1645883, 2021; active means well fitted activation curve with a large enough effect; inconclusive means small, poorly fitted or top-dose-only effect; inactive means no such curve, though single readings can be large or run the other way;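 further: nearly all actives have a fitted effect of over 70% in size; series mostly up to about 76 or 150 µM; scaled to a cAMP control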
# Target sequence (O95398 whole entry, looked up): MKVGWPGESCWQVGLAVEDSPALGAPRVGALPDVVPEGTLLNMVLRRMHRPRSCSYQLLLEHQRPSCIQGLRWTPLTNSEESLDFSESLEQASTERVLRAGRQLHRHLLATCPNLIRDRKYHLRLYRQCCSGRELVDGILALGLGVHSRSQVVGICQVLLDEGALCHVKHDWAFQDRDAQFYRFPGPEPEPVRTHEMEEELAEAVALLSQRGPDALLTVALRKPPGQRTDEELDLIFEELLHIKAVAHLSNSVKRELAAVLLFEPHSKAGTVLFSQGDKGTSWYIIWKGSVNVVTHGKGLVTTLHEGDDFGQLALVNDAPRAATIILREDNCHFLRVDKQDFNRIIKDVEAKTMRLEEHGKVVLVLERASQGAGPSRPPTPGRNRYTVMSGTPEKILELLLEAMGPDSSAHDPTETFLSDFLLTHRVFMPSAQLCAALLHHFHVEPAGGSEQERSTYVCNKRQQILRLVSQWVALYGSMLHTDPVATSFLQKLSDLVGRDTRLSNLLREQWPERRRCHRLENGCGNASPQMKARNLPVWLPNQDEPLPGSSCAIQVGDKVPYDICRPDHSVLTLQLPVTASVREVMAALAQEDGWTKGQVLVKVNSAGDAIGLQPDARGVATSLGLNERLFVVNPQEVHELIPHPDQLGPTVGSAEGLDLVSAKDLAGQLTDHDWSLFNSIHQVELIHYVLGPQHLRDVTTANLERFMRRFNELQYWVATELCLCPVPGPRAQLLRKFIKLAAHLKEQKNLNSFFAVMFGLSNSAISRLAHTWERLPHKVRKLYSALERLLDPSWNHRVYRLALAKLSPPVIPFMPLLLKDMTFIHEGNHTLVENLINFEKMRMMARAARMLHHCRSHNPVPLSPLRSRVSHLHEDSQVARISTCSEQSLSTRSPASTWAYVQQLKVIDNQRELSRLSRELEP
# * = called active by the depositor; u = inconclusive; & = joins results of further samples; [ ] = another dose, or the depositor's remark. On the % scale 0 is the no-effect control and ±100 the full control effect; potency means the concentration at half of the fitted maximal effect. Not all compounds are listed, so the mix of outcomes need not match the whole.
EPAC1 agonist	smiles
-51%[inhibitor]	O=C(c1cccc(F)c1)N1CCC[C@@]2(CCN(C(c3ccccc3)c3ccccc3)C2)C1
u	O=c1[nH]c(-c2ccccc2O)nc2ccccc12
-1%	Clc1ccc(-n2cccc2CN2CCc3nnc(Cc4ccccc4)n3CC2)nc1
-27%	COc1ccccc1CNc1ccnc(-c2c(C)noc2C)n1
100µM*	O=c1c(-c2cccs2)nc2cnc(N3CCOCC3)nc2n1CCc1ccccc1
-15%	CC1(C)CO[C@H](CC(=O)O)CN1
-6%	CN(C)C(=O)c1ccc(-c2nc(Nc3ccc(F)cc3)c3ccccc3n2)cc1
-25%	Cc1cccc(CNc2ncnc3ccc(-c4ccccc4CN(C)C)cc23)c1
-21%	CCCCCCCCN1[C@@H](CC(=O)OCC)c2cc(F)ccc2S1(=O)=O
2%&-33%	CC(C)=CCC/C(C)=C/CO
-37%[inhibitor]	CCCCCCCCCCCCC/C=C\[C@@H](O)[C@@H](N)CO
18%	C#C[C@]1(O)CCC2C3CCC4=Cc5oncc5C[C@@]4(C)C3CC[C@@]21C (stereo partly specified)
-10%	Cc1cc(O)c2c(c1O)C(=O)c1c(O)cc(C)c(O)c1C2=O
-159%[inhibitor]	CC(C)CCCC(C)C1CCC2C3CC(O)[C@@]4(O)CC(O)CC[C@@]4(C)C3CC[C@@]12C (stereo partly specified)
-23%	CCCCCCCCCCCCCC[n+]1ccc(C)cc1
-18%	CC(=O)Oc1cc(-c2coc3cc(OC(C)=O)c(OC(C)=O)c(OC(C)=O)c3c2=O)cc(OC(C)=O)c1OC(C)=O
-8%	Cc1cc(=O)[nH]c2cc(N)ccc12
-4%	COc1ccccc1-c1nc(Nc2ccncc2)c2ccccc2n1
-8%	CCN(Cc1ccncc1)Cc1ccc2c(c1)CN(C(=O)c1ccccc1-n1cccn1)CCO2
-48%[inhibitor]	OCCN1CCN(CC/C=C2/c3ccccc3Sc3ccc(Cl)cc32)CC1
-7%	Cc1noc(C)c1C(=O)N1CCC[C@@]2(CCN(c3ccccc3)C2)C1
8%	CCN(CC)C(=S)S
-8%	CCOC(=O)c1c(C)cc(O)cc1O
-24%	CC(=O)NCCNc1ncnc2ccc(-c3ccccc3C)cc12
112µM*	COc1ccc(Oc2ncc3nc(C)c(=O)n(Cc4cccs4)c3n2)cc1
14%	COc1cccc(OC)c1C(=O)N[C@@H]1C(=O)N2[C@@H]1SC(C)(C)[C@@H]2C(=O)O
-65%[inhibitor]	COc1ccc(-c2nc3cnc(Oc4cccc(Cl)c4)nc3n(C3CC3)c2=O)cc1
-4%	CC(=O)N1CCC[C@H]1C(=O)NCC1Cc2cc(Cl)cc(-c3ccc4[nH]ccc4c3)c2O1 (stereo partly specified)
13%&-11%	CCCn1c(=O)c2c(ncn2C)n(CCC)c1=O
-20%&34%	NS(=O)(=O)c1cc2c(cc1Cl)NC(C(Cl)Cl)NS2(=O)=O (stereo unspecified)
-37%	COc1cccc(Nc2ncc3nc(-c4ccccc4)c(=O)n(C4CC4)c3n2)c1
-27%	O=c1c(-c2cc(F)cc(F)c2)nc2cnc(N3CCOCC3)nc2n1Cc1ccc(F)cc1
-2%	CC(=O)Nc1cc(C(=O)N2CC3(C)CC2CC(C)(C)C3)cc2ncn(CCc3ccccn3)c12 (stereo unspecified)
-21%	CCCCCCCCCCCC(=O)O[C@H](CC(=O)O)C[N+](C)(C)C
-26%	NC(=O)c1cc[n+](CC2=C(C(=O)O)N3C(=O)[C@@H](NC(=O)C(c4ccccc4)S(=O)(=O)[O-])[C@H]3SC2)cc1 (stereo partly specified)
-133%[inhibitor]	O=C(Nc1cccc(F)c1)N1CCCC2(CCN(C(=O)c3cc(C(F)(F)F)cc(C(F)(F)F)c3)CC2)C1
u	COCC(=O)N1CCC2(CC1)CN(c1ccccn1)C2
5%&-71%&-20%&16%&17%	Cc1cc2c(C(C)C)c(O)c(O)c(C=O)c2c(O)c1-c1c(C)cc2c(C(C)C)c(O)c(O)c(C=O)c2c1O
2%	CC(=O)SC1CC2=CC(=O)CC[C@]2(C)C2CC[C@@]3(C)C(CC[C@@]34CCC(=O)O4)C12 (stereo partly specified)
6%	O=c1cc(-c2ccccc2O)oc2c1ccc1ccccc12
-5%	C=C1[C@H](CO)[C@@H](O)C[C@@H]1n1cnc2c(=O)[nH]c(N)nc21
-29%	O=S(=O)(c1ccccc1)N1CCC[C@@]2(CCN(c3ccccc3)C2)C1
9%	COc1ccccc1-c1ccnc(-n2ncc(C(=O)NCC3(N4CCOCC4)CCCC3)c2C)n1
0%&-18%	CCCCCN(CCCCC)C(=O)C(CCC(=O)O)NC(=O)c1ccc(Cl)c(Cl)c1 (stereo unspecified)
-67%[inhibitor]	c1ccc(Nc2ncnc3ccc(-c4ccc5c(c4)OCO5)cc23)cc1
-10%	COc1cc2nc(N3CCN(C(=O)OCc4ccccc4)C(C(=O)NC(C)(C)C)C3)nc(N)c2cc1OC (stereo unspecified)
-70%[inhibitor]	COc1ccccc1CN1CCCC2(CCN(C(=O)c3cc(C(F)(F)F)cc(C(F)(F)F)c3)CC2)C1
25%	COc1ccc(NC(=O)N2CC3(CCN(C(=O)c4cnccn4)CC3)C2)cc1
-5%&1%&-14%	COc1ccc2cc1Oc1ccc(cc1)C[C@H]1c3cc(c(OC)cc3CCN1C)Oc1c(OC)c(OC)cc3c1[C@H](C2)N(C)CC3
8%	O=C(C[n+]1cccc(Br)c1)c1ccc(I)cc1
100µM*	Cc1ccc2c(/C=C/c3ccc(N(C)C)cc3)ccnc2c1C
0%	CN(Cc1ccc2c(c1)CN(C(=O)c1cccc(N(C)C)c1)CCO2)Cc1cc(C2CC2)n[nH]1
6%	CCCCCc1ccc(-c2cn(CN3C(=O)c4ccccc4C3=O)nn2)cc1
u	Cc1sc2ccccc2[n+]1CC(=O)c1ccc(F)cc1
-34%[inhibitor]	COc1ccc(NC(=O)N2CCCC3(CCN(S(C)(=O)=O)CC3)C2)cc1
u	CN(C)c1ccc(C(=C2C=CC(=[N+](C)C)C=C2)c2ccc(N(C)C)cc2)cc1
5%	O=c1c(CCc2ccccc2)nc2cnc(N3CCNCC3)nc2n1-c1ccccc1
-4%	CCC1(C2CCN(C(=O)c3cc4ccccc4o3)CC2)NC(=O)N(CCc2scnc2C)C1=O (stereo unspecified)
-9%	CO[C@@H]1[C@@H](OC(N)=O)[C@@H](O)[C@H](Oc2ccc3c(O)c(NC(=O)c4ccc(O)c(CC=C(C)C)c4)c(=O)oc3c2C)OC1(C)C
-3%	FC(F)(F)c1ccccc1-c1cncnc1Nc1ccccc1

# The list goes on:
EPAC1 agonist	smiles
2%	O=C(c1ccco1)N1CCC2(CCCN(c3ccccn3)C2)CC1
0%	O=C(Cc1c[nH]c2ccccc12)N1CCC(n2c(C3CCCO3)nc3cc(C(F)(F)F)ccc32)CC1 (stereo unspecified)
-15%	CC1(C)[C@@H](O)CC[C@]2(C)C3C(=O)C=C4C5C[C@@](C)(C(=O)O)CC[C@]5(C)CC[C@@]4(C)[C@]3(C)CC[C@@H]12 (stereo partly specified)
-97%[inhibitor]	COc1ccccc1CN1CC[C@@]2(CCCN(C(=O)c3cc(C(F)(F)F)cc(C(F)(F)F)c3)C2)C1
-5%	CCn1c(-c2ccccc2F)nc2cc(NC(C)=O)cc(C(=O)N(C)Cc3cn(C)nc3C)c21
-11%&-82%	CCCCC/C=C\C/C=C\CCCCCCCC(=O)O
u	CCC(=O)OC1C2CC3=C4CC(=O)OC(c5ccoc5)[C@]4(C)CCC3[C@@](C)(C2=O)C(CC(=O)OC)C1(C)C (stereo partly specified)
11%	CC[C@H]1OC(=O)[C@H](C)[C@@H](O[C@H]2C[C@@](C)(OC)[C@@H](O)[C@H](C)O2)C(C)[C@@H](O[C@@H]2O[C@H](C)C[C@H](N(C)C)[C@@H]2O)[C@](C)(OC)C[C@@H](C)C(=O)[C@H](C)[C@@H](O)[C@]1(C)O (stereo partly specified)
-53%[inhibitor]	Cc1noc(C)c1C(=O)N1CCC2(CCN(C(=O)NC(C)C)CC2)CC1
8%	Cc1ccnc2ccc(I)cc12
0%	OC1(c2cccnc2)CCN(Cc2ccc3c(c2)CN(Cc2ccc(Cl)cc2)CCO3)CC1
u	CC(Oc1ccccc1)C(=O)N[C@@H]1C(=O)N2C(C(=O)O)C(C)(C)S[C@H]12 (stereo partly specified)
5%	Cc1cc(-c2ccnc(-n3ncc(C(=O)NC(C)(C)CO)c3C3CC3)n2)c(C)s1
26%	COc1c2ccoc2cc2oc(C)cc(=O)c12
-2%	Cc1cccnc1-c1cccc2c1OC(CNC(=O)Cn1cncn1)C2 (stereo unspecified)
-4%	C[S+](C)CCC(N)C(=O)O (stereo unspecified)
-12%	O=S(=O)(NCc1ccccc1)[C@@H]1CC2C=CC1C2 (stereo partly specified)
-17%	C[C@@H](O)[C@H](N)C(=O)O
21%	O=[N+]([O-])c1ccc(-c2nc(-c3ccc(F)cc3)c(-c3ccncc3)[nH]2)cc1
-5%	CCC1(C2CCN(Cc3cccnc3)CC2)NC(=O)N(CC2COc3ccccc3O2)C1=O (stereo unspecified)
-1%	Cc1ncc[nH]1
-36%[inhibitor]	Nc1ccc([N+](=O)[O-])cc1O
-12%	CCOC(=O)[C@H](CCc1ccccc1)N[C@@H](C)C(=O)N1[C@H](C(=O)O)C[C@@H]2CCC[C@@H]21
9%	COc1ccc(C2OC3C(CO)OC(n4cnc5c(=O)[nH]c(N)nc54)C3O2)cc1 (stereo unspecified)
-55%[inhibitor]	CCOC(=O)C[C@H]1c2cc(F)ccc2S(=O)(=O)N1Cc1ccc(OC)cc1
-12%	COc1cc(=O)n2c(c1C(=O)N(C)Cc1nonc1C)CCN(Cc1cc(C)c(C)cc1C)CC2
u	N#Cc1ccc(CN2CC3(CCN(C(=O)c4cnccn4)CC3)C2)cc1
6%	C[C@@H]1C[C@H]2[C@@H]3C[C@H](F)C4=CC(=O)C=C[C@]4(C)[C@@]3(Cl)[C@@H](O)C[C@]2(C)[C@H]1C(=O)COC(=O)C(C)(C)C
12%	CCOC(=O)c1ccc(-c2c(-c3cc(OC)c(OC)c(OC)c3)noc2C)cc1F
9%	O=C(C[N+]12CCCc3cccc(c31)CCC2)c1ccc(Cl)c2ccccc12
-21%	c1cncc(-c2cncnc2NCc2cccs2)c1
3%	COc1ncc2nc(-c3ccccc3)c(=O)n(-c3ccccc3)c2n1
19%	COC(=O)C[C@H]1c2cc(F)ccc2S(=O)(=O)N1c1ccc(N(C)C)cc1
-7%	CCN(CC)CCNC(=O)c1cnn(-c2ncc3c(n2)-c2ccc(OC)cc2CC3)c1C
3%	COc1ccc(-n2c(=O)c(C)nc3cnc(Nc4ccccc4)nc32)cc1
20%	Cc1ccc(-n2cc(CCCCCCCCC(=O)O)nn2)cc1
-6%	COC(=O)[C@@H]1CCCN1Cc1ccc2c(c1)CN(Cc1ccc3c(c1)CCO3)CCO2
6%	O=C1[C@H]2[C@H](C=CC[C@H]2C(=O)N2CCOCC2)CCN1Cc1ccccc1
6%	CC(C)(S)[C@@H](N)C(=O)O
-16%	COCCn1c(=O)cnc2cnc(N(C)C)nc21
12%	O=C(NCC1Cc2cccc(-c3ncccn3)c2O1)C1CCCO1 (stereo unspecified)
-9%	COc1cc(=O)n2c(c1C(=O)NC(C)c1ccco1)CCN(C(=O)c1cccc(C)c1C)CC2 (stereo unspecified)
1%	CC(C)CN1CC[C@@]2(CCCN(C(=O)c3cnccn3)C2)C1
-14%	CCC1CN(Cc2cccn2-c2ccccn2)Cc2cc(OC)ccc2O1 (stereo unspecified)
7%&-15%&-2%	CN1CCC(=C2c3ccccc3C=Cc3ccccc32)CC1
u	O=C(Nc1ccccc1)[C@@H]1CC=C[C@@H]2CCN(Cc3ccc(Cl)c(Cl)c3)C(=O)[C@@H]21
28%	COc1cc(O)c(C(=O)/C=C/c2ccccc2)c(OC)c1
-4%	Nc1ncnc2c1ncn2[C@@H]1O[C@H](COP(=O)(O)OP(=O)(O)CP(=O)(O)O)[C@@H](O)[C@H]1O
1%&-2%&-17%&3%	CC[N+](CC)(CC)CC(=O)Nc1c(C)cccc1C
-18%	NCCC(O)(P(=O)(O)O)P(=O)(O)O
22%	CC(C)C(NC(=O)c1ccoc1)c1nnc2n1CCN(Cc1ccc3c(c1)Cc1ccccc1-3)CC2 (stereo unspecified)
-22%&-8%	CC1=C(/C=C/C(C)=C\C=C\C(C)=C\C(=O)O)C(C)(C)CCC1
-4%	CN(C)c1nc(CN2CCCCC2c2cccnc2)nc2ccccc12 (stereo unspecified)
